AF4-AF9 inh: MLL-AF4/AF9 protein interaction inhibition | AlphaScreen, biotin-AF4 peptide binding to FLAG-AF9 | AID 651704 | inhibition, % at 10 µM | 350,000 tested, 0.47% active | P42568;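 active means every replicate reaching a set inhibition limit, whatever the replicate mean, cut at about 25% in these data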;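 further: 0% = plate neutral control median and 100% = total signal loss; the record names both 10 and 1 µM as test concentration; the first replicate is given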
Target sequence (P42568 whole entry, looked up): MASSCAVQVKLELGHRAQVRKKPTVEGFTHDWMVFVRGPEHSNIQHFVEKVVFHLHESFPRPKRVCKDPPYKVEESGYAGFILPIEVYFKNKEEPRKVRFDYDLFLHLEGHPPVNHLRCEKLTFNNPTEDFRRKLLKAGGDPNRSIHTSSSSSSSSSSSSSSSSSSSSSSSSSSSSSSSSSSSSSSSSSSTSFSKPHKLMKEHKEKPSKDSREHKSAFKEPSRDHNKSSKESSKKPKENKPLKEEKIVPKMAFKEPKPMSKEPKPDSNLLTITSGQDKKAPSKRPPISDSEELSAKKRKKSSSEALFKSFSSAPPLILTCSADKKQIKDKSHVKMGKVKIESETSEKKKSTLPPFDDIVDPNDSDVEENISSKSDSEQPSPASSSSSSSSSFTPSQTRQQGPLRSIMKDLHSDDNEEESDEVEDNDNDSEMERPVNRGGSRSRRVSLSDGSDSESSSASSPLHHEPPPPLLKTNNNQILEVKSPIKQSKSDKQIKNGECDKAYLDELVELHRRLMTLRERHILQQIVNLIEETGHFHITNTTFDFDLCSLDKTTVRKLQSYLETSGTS
rRNA inh HTS: inhibitors of bacterial rRNA selective over humanized ribosomes; E. coli WT GFP vs humanized-ribosome RFP mutants, fluorescence, 24 h; hits give low values; DMSO median 0, no signal -100; GFP signal change (wild-type ribosome), % (no concentration beside the values); 350,000 tested, 1.6% active;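 active means significant combined selectivity score with lowered wild-type GFP, culture density cut under 30%, mutant RFP and density less affected; inactive means any of these conditions unmet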; further: one replicate is shown; some compounds called inactive have numbers as strong as hits
rRNA inh HTS OD600: also measured in rRNA inh HTS; calls as there; OD600 change, %; measured here: OD600 growth;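 optical density of the mix in the first replicate; 0 = DMSO median and -100 = no signal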
rRNA inh HTS RFP: second read-out of rRNA inh HTS, no call of its own (marks repeat the call); RFP signal change, %; measured here: RFP humanized mutant strains;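 first replicate; 0 = DMSO median and -100 = no signal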
* = called active by the depositor; & = joins results of further samples. These rows are one share of the data. The share of hits here may be higher or lower than overall.

AF4-AF9 inh	SMILES	rRNA inh HTS OD600	rRNA inh HTS RFP	rRNA inh HTS
2.3	COC(=O)[C@@]1(Cc2ccc(F)cc2)[C@H]2c3cc(C(=O)N(C)C)n(CCN4CCOCC4)c3C[C@H]2CN1C(=O)c1ccccc1	1	4.0	12
-0.6	COc1cccc(-c2ccc([C@@H]3[C@H]4CN(CC5CC5)CCCCN4[C@H]3CO)cc2)c1	-7	-3.3	0
-0.3	CCCN1C[C@H](C)[C@H](OC)CN(C)C(=O)c2cc(NC(=O)c3ccccc3F)ccc2OC[C@H]1C	5	-2.6	0
3.0	CN1c2ccc(-c3cccc(F)c3)cc2[C@@H]2[C@@H](CCN2C(=O)C2CCOCC2)[C@@H]1CO	-10	3.9	-3
15&11	c1ccc(CN2C[C@@H]3N[C@H](C2)C3c2ccc(-c3ccccc3)cc2)cc1 (some centres not stated)	-79&-78	-9.2&-10	-53&-58
0.5	Cc1ccccc1S(=O)(=O)N1C(c2ccc(Cl)c(Cl)c2)CC=C(C(=O)O)C1c1cccc(Br)c1 (configuration not stated)	-28	1.1	-10
-3.5	COCC#Cc1cnc2c(c1)C(=O)N([C@H](C)CO)C[C@H](C)[C@H](CN(C)C(=O)CN1CCOCC1)O2	5	-0.2	4
-1.7	CO[C@H]1CN(C)C(=O)c2cc(NC(=O)c3cnccn3)ccc2OC[C@@H](C)NC[C@@H]1C	4	0.6	0
1.1	CN1C(=O)c2cc(NC(=O)c3cccc(F)c3)ccc2OC[C@H]2O[C@H](CC(=O)NCC3CC3)CC[C@@H]21	3	1.4	3
-13	C[C@@H]1CCCCO[C@@H](CN(C)Cc2ccc(C(=O)O)cc2)[C@@H](C)CN([C@H](C)CO)C(=O)c2cc(NC(=O)c3ccncc3)ccc2O1	4	-3.6	3
-5.1	C[C@H](CO)N1C[C@H](C)[C@H](CN(C)S(C)(=O)=O)Oc2ncc(C#CC3CC3)cc2C1=O	1	-1.3	1
-0.3	Cc1ccc(S(=O)(=O)Nc2ccc3c(c2)C(=O)N([C@@H](C)CO)C[C@H](C)[C@H](CN(C)C(=O)CCC(F)(F)F)OCCCC[C@@H](C)O3)cc1	7	-0.4	1

3 entries from above, set out differently.
SMILES	AF4-AF9 inh	rRNA inh HTS OD600	rRNA inh HTS RFP	rRNA inh HTS
COCC#Cc1cnc2c(c1)C(=O)N([C@H](C)CO)C[C@H](C)[C@H](CN(C)C(=O)CN1CCOCC1)O2	-3.5	5	-0.2	4
CO[C@H]1CN(C)C(=O)c2cc(NC(=O)c3cnccn3)ccc2OC[C@@H](C)NC[C@@H]1C	-1.7	4	0.6	0
CN1C(=O)c2cc(NC(=O)c3cccc(F)c3)ccc2OC[C@H]2O[C@H](CC(=O)NCC3CC3)CC[C@@H]21	1.1	3	1.4	3

Next section
AF4-AF9 inh	SMILES	rRNA inh HTS OD600	rRNA inh HTS RFP	rRNA inh HTS
0.1	COCC#Cc1ccc2c(c1)O[C@H](CN(C)C(=O)NC(C)C)[C@@H](C)CN([C@H](C)CO)S2(=O)=O	-6	-2.5	-4
2.2	Cc1noc(C)c1NC(=O)N(C)C[C@@H]1Oc2ccc(NC(=O)c3ccncc3)cc2CC(=O)N([C@H](C)CO)C[C@H]1C	-3	-1.2	1
2.7	C[C@@H]1CCCCO[C@H](CN(C)Cc2ccc(C(=O)O)cc2)[C@@H](C)CN([C@@H](C)CO)C(=O)c2cc(NC(=O)Nc3cccc4ccccc34)ccc2O1	2	0.7	2
-0.4	O=C(C1CCCCC1)N1C[C@@H](O)[C@H](n2cc(-c3ccc(F)cc3)nn2)C[C@@H]1c1ccccc1	-51	-2.4	-14
8.2	C[C@@H]1CN([C@@H](C)CO)S(=O)(=O)c2ccc(C#CC3CCCCC3)cc2O[C@H]1CN(C)C	-26	6.0	-14
-0.3	CC(=O)NC(C)(c1ccccc1)c1nc(-c2ccncc2)cs1 (configuration not stated)	1	0.7	8
-0.8	COCC(=O)N1CC2(CN[C@H](CO)c3c2c2ccc(OC)cc2n3C)C1	2	1.9	3
-3.3	C[C@@H]1CN([C@H](C)CO)C(=O)c2cc(NS(=O)(=O)c3ccc(F)cc3)ccc2O[C@H]1CN(C)Cc1ccc(C(F)(F)F)cc1	-24	22	-4
-10	C[C@@H]1CN([C@@H](C)CO)S(=O)(=O)c2ccc(C3=CCCC3)cc2O[C@H]1CN(C)C(=O)c1ccccc1	-8	-0.4	1
3.3	COc1ccc(NC(=O)c2cc(C3CCCCN3C(=O)OCCF)on2)c(C)c1 (configuration not stated)	9	1.2	4
5.3	C[C@H](CO)N1C[C@H](C)[C@H](CN(C)Cc2cccnc2)Oc2cc(C#CC3CCCC3)ccc2S1(=O)=O	-36	13	-9
-3.7	CCNC(=O)C[C@@H]1CC[C@@H]2[C@H](COC[C@H](O)CN2C(=O)C2CCOCC2)O1	8	11	-1
0.7	O=C(C[C@H]1C=C[C@@H](NS(=O)(=O)c2ccc(F)cc2)[C@@H](CO)O1)NCCN1CCCCC1	-4	0.0	-1
8.2	Cc1cnc(C)c(Nc2nc(C(N)Cc3ccc(Cl)cc3)cs2)n1 (configuration not stated)	-4	18	-1
-9.6	C[C@H](CO)N1C[C@H](C)[C@@H](CN(C)C(=O)Nc2ccccc2)Oc2cc(-c3cccc(C(=O)N(C)C)c3)ccc2S1(=O)=O	-3	1.2	1
1.4	CN(C)c1ccc2c(c1)[C@H]1C[C@H](CC(=O)NCc3cccc(F)c3)O[C@@H](CO)[C@H]1O2	8	0.4	3
-1.3	Cc1ccc(S(=O)(=O)N(C)C[C@H]2Oc3ccc(NC(=O)NC4CCCCC4)cc3C(=O)N([C@H](C)CO)C[C@@H]2C)cc1	-16	0.3	-6
-11	COc1ccccc1NC(=O)N1C[C@@H](O)COC[C@H]2O[C@@H](CC(=O)NCCc3ccccc3)CC[C@@H]21	-4	-2.2	-4
-1.2	Cn1cnc(S(=O)(=O)N[C@H]2CC[C@H](CC(=O)Nc3ccc(-c4ccccc4)cc3)O[C@H]2CO)c1	-1	0.3	-2
2.9	OC[C@@H]1[C@H](c2ccccc2)[C@@H](CNCC2CCC2)N1CC1CC1	9	2.7	2
-2.0	CN1C[C@H](O)COC[C@H]2O[C@@H](CC(=O)NC3CCCC3)CC[C@@H]21	12	-1.0	2
0.1	CCC(=O)N[C@H]1CC[C@H](CC(=O)NCc2cc(F)cc(F)c2)O[C@@H]1CO	1	0.9	4
3.1	COc1ccc(C#Cc2ccc([C@@H]3[C@@H](CO)N4CCCCN(C(=O)Nc5ccccc5F)C[C@H]34)cc2)cc1	1.6*	6.6*	-35*
-0.3	O=C(N[C@@H]1CC[C@@H](CCn2cc(C3(O)CCCC3)nn2)O[C@H]1CO)C1CCC1	12	-2.9	3
-2.5	C[C@H](CO)N1C[C@H](C)[C@H](CN(C)C(=O)Cc2ccccc2)Oc2ncc(-c3cncnc3)cc2C1=O	5	-2.4	3
-2.2	C[C@@H]1CN([C@H](C)CO)C(=O)c2cc(C#CC3CCCCC3)cnc2O[C@@H]1CN(C)C(=O)c1ccncc1	5	-2.1	4
0.3	CN1CCN(C(=O)C[C@H]2CC[C@@H]3[C@H](COc4ccc(NC(=O)c5cccs5)cc4C(=O)N3C)O2)CC1	1	-3.0	0
-0.8	Cc1noc(C)c1NC(=O)Nc1ccc2c(c1)C(=O)N([C@H](C)CO)C[C@@H](C)[C@H](CN(C)Cc1ccncc1)OCCCC[C@H](C)O2	2	-4.6	2
2.0	COc1ccc(C(C)C)cc1-c1cccc2nncn12	-8	-0.4	-1
-4.5	C[C@@H]1CN([C@H](C)CO)S(=O)(=O)c2ccc(-c3ccncc3)cc2O[C@@H]1CN(C)CC1CC1	3	-0.5	4
-0.4	CC(C)NC(=O)C1(C)CCN1C(=O)c1ccc2c(c1)OCO2 (configuration not stated)	9	-1.0	8
1.9	Nc1nc2ncccn2c1-c1ccc(F)cc1	16	3.0	20
4.9	Cc1ccc(-c2ccc3c(c2)O[C@@H](CN(C)Cc2cncnc2)[C@H](C)CN([C@@H](C)CO)S3(=O)=O)cc1	-42	11	-23
0.8	COc1cccc(OC)c1NC(=O)c1ccc(-c2cc(Cl)ccc2Cl)o1	8	5.5	6
-3.3	Cc1noc(C)c1NC(=O)Nc1ccc2c(c1)C(=O)N([C@@H](C)CO)C[C@@H](C)[C@H](CN(C)C(=O)Nc1c(C)noc1C)OCCCC[C@H](C)O2	7	-1.8	3
-1.1	O=C(C[C@@H]1CC[C@H](NC(=O)C2CCC2)[C@H](CO)O1)NCC1CC1	2	0.1	1
-0.9	CCCNC(=O)N1CCC2(CC1)CN(C(=O)CC)[C@@H](CO)c1[nH]c3cc(OC)ccc3c12	5	-4.1	0
-0.4	COc1ccc(OC)c(NC(=O)C2(C)CCN2Cc2ccccc2OC(F)F)c1 (configuration not stated)	-22	-7.2	-24
2.9	CCC(=O)N1C[C@@H](C)[C@@H](OC)CN(C)C(=O)c2cc(NC(=O)NC(C)C)ccc2OC[C@@H]1C	0	-2.2	-1
1.2	CO[C@@H]1CN(C)C(=O)c2ccc(NC(=O)C3CC3)cc2OC[C@@H](C)N(C(=O)CN2CCOCC2)C[C@@H]1C	-9	-3.2	2
-2.2	CN(C)CC(=O)N[C@H]1C=C[C@H](CC(=O)NCc2ccccc2F)O[C@H]1CO	7	-3.0	0
-0.6	COc1ccc(OC)c(CNS(=O)(=O)c2ccccc2Br)c1	2	1.6	-2
0.7	C[C@@H]1CN([C@@H](C)CO)S(=O)(=O)c2ccc(-c3ccccc3)cc2O[C@@H]1CN(C)C(=O)Nc1ccccc1F	-23	3.0	-2
0.0	CO[C@@H]1CN(C)C(=O)c2ccc(NC(=O)C3CC3)cc2OC[C@H](C)N(C)C[C@H]1C	3	-1.7	3
-3.8	O=C(Nc1nccs1)[C@H]1[C@H](CO)[C@H]2Cn3c(cccc3=O)[C@@H]1N2C(=O)C1CCCC1	6	0.3	2
12	COc1cccc(S(=O)(=O)N2CC[C@H]3[C@H](CO)Nc4ccc(C#Cc5cccnc5)cc4[C@H]32)c1	-8	0.9	-16
-1.0	O=C(C1CCCC1)N1CC2(C1)[C@@H](c1ccccc1)[C@@H](CO)N2C(=O)c1cccnc1	1	-2.5	-1
-0.3	O=C(C[C@@H]1CC[C@H]2[C@@H](COC[C@H](O)CN2C(=O)Nc2ccc(F)cc2)O1)NCCc1ccncc1	-4	-5.6	-3

Compound profiles (already shown). Screens in order: AF4-AF9 inh, rRNA inh HTS OD600, rRNA inh HTS RFP, rRNA inh HTS
O=C(C[C@@H]1CC[C@H]2[C@@H](COC[C@H](O)CN2C(=O)Nc2ccc(F)cc2)O1)NCCc1ccncc1 reads -0.3, -4, -5.6, -3
CO[C@@H]1CN(C)C(=O)c2ccc(NC(=O)C3CC3)cc2OC[C@H](C)N(C)C[C@H]1C reads 0.0, 3, -1.7, 3
COc1cccc(S(=O)(=O)N2CC[C@H]3[C@H](CO)Nc4ccc(C#Cc5cccnc5)cc4[C@H]32)c1 reads 12, -8, 0.9, -16

Additional structures
AF4-AF9 inh	SMILES	rRNA inh HTS OD600	rRNA inh HTS RFP	rRNA inh HTS
-1.6	CC(=NCc1ccccc1)c1ccc(O)cc1O	-38	-1.6	-17
-3.7	COCC#Cc1ccc([C@H]2[C@H]3CN(C(=O)NC4CCCC4)CCCCN3[C@H]2CO)cc1	-3	-4.3	0
18	COc1ccc2c3c([nH]c2c1)[C@H](CO)N(Cc1ccc(F)cc1)CC31CCN(C)CC1	-3	4.5	3
-0.4	CCS(=O)(=O)N1CCCCN2[C@H](CO)[C@@H](c3ccc(-c4ccccc4)cc3)[C@@H]2C1	-4	2.0	3
-2.1	C[C@H](NC(=O)C[C@@H]1CC[C@@H](NS(=O)(=O)c2cccc(F)c2)[C@@H](CO)O1)c1ccccc1	-8	-1.3	-3
-0.9&-5.4	C[C@H]1CN([C@@H](C)CO)C(=O)c2cc(Br)cnc2O[C@H]1CN(C)C(=O)C1CCC1	7&13	-1.4&-1.6	3&3
-1.1	O=C(NCC[C@@H]1CC[C@H](NC(=O)C2CCC2)[C@H](CO)O1)c1ccc(F)cc1	-2	1.3	-2
-1.6	CC(=O)N(C)C[C@H]1Oc2ncc(-c3ccc(C(=O)N(C)C)cc3)cc2C(=O)N([C@@H](C)CO)C[C@H]1C	10	-2.5	6
-1.1	Cc1ccc(S(=O)(=O)N[C@@H]2CC[C@@H](CCn3cc(C(C)C)nn3)O[C@@H]2CO)cc1	0	-0.3	0
-1.1	CCCNC(=O)[C@H]1[C@H](CO)[C@H]2Cn3c(ccc(-c4cccc(F)c4)c3=O)[C@@H]1N2CCC	-5	-4.2	0

Screening data from PubChem BioAssay.
